Screening data deposited in PubChem BioAssay by National Center for Advancing Translational Sciences (NCATS).
VACV mCherry inh – inhibitors of vaccinia virus infection (mCherry reporter signal) | Vaccinia virus mCherry reporter infection, fluorescence; about a quarter of the inactives have no number | Potency, µM (top dose mostly 36.5 µM), inactives show at the highest dose activity change, negative = inhibition, hits mostly inhibitors | hit rate 0.63% among 310,000 | AID 720579; active = well fitted inhibition curve with a large enough effect; inconclusive = small, poorly fitted or top-dose-only effect; inactive = no such curve, though single readings can be large or run the other way; tested in A549 cells; further: nearly all actives have a fitted effect of over 35% in size; inactives centre near -10
Vaccinia Venus – inhibitors of vaccinia virus (Venus reporter); Vaccinia virus Venus reporter expression, fluorescence; Potency, µM (doses to about 36.5 µM), inactives show at the top dose activity change, negative = inhibition, hits mostly inhibitors; hit rate 0.46% among 330,000; active means well fitted inhibition curve with a large enough effect; inconclusive means small, poorly fitted or top-dose-only effect; inactive means no such curve, though single readings can be large or run the other way; tested in A549 cells; further: nearly all actives have a fitted effect of over 30% in size; inactives centre near -10
The depositor's hits bear a star; i = inactive; ? = inconclusive; . = no result given; & = joins results of further samples. On the % scale 0 is the no-effect control and ±100 the full control effect; potency means the concentration at half of the fitted maximal effect.

SMILES | VACV mCherry inh | Vaccinia Venus
CCC1=C2CC[C@H]3C(=O)N(c4ccccc4)C(=O)[C@H]3[C@H]2[C@@]2(C)C(=NCC3CC3)OC(=O)N2C1=O | -3.4% | -5.2%
CC(=O)Nc1ccc(S(=O)(=O)N(Cc2ccco2)CC2CCCO2)cc1 (centres undefined) | -19.6% | -7.8%
CC(=O)Nc1ccc(S(=O)(=O)Nc2nc3c(s2)CCCC3)cc1 | . | -17.8%
O=C(C(=O)N1CCN(CCN2CCOCC2)CC1)c1ccccc1 | i | -21.1%
O=C(Cn1cc(S(=O)(=O)Cc2ccc(F)cc2)c2ccccc21)NCc1ccccc1 | -9.0% | -5.8%
CCOC(=O)c1nn(-c2ccc(F)cc2)c(=O)cc1OCC(=O)Nc1ccc(F)c(F)c1 | -2.2% | 6.2%
COc1ccc2c3c(cccc13)OC2=O | -5.3% | -26.8%
Nc1ccc(-c2cnc3ccccc3n2)cc1 | -15.7% | -12.3%
COc1cc(/C=C/C2=NC(=O)C(C)(C)O2)ccc1O | -27.8% | -8.8%
CC(=O)c1cn(C(=O)c2ccc(Cl)cc2)c2ccccc12 | -8.1% | -14.3%
CC(C)C[C@@H](CNCC(=O)[C@H](C)NC(=O)c1[nH]cnc1C(=O)N[C@@H](C)CN)NC(=O)c1nc[nH]c1C(=O)N[C@@H](CC(=O)O)C(=O)O | i | -3.5%
CC(C)CNC(=O)c1c(N)n(Cc2ccco2)c2nc3ccccc3nc12 | ? | -13.3%
COCc1cccc(-c2csc(C(C)(O)c3ccc(OC)cc3)n2)c1 (centres undefined) | -8.8% | -1.9%
Cc1nonc1C(=O)N/N=C/c1cccc(O)c1 | -9.3% | -4.7%
Cc1ccc(Cn2ccc(NC(=O)c3cc(CC(C)C)on3)n2)cc1 | i | -5.1%
C[C@@H]1CNC(=O)c2c(C(=O)NCC(=O)OC(C)(C)C)ncn21 | i | -13.8%
O=C(/C=N/NC(=O)c1ccc(Cl)cc1Cl)c1ccccc1 | -24.3% | -9.1%
CCCCn1c(CCNC(=O)CCC)nc2ccccc21 | -16.9% | 15.2%
O=C(O)C(Br)CBr (centres undefined) | -3.1% | -20.1%
c1csc(-c2ccn[nH]2)c1 | -27.4% | -9.3%
CCOC(=O)C1=CN(Cc2ccco2)S(=O)(=O)NC1c1cccc(OC)c1 (centres undefined) | i | 0.0%
O=C(NCC(c1ccco1)N1CCc2ccccc2C1)c1ccccc1Br (centres undefined) | ? | -9.3%
CC1=CCCC(C)(C)C1/C=C/C(C)=N/NC(=O)c1ccncc1 (centres undefined) | 2.2% | 0.9%
O=C(Nc1nnc(SCc2ccccc2)s1)C1=COCCO1 | -10.2% | 2.9%
Cc1cc(C)c(/C=N/NC(N)=O)c(C)c1/C=N/NC(N)=O | -21.0% | -2.8%
COc1ccc(NS(=O)(=O)c2cc(NC(=O)CNC(=O)c3ccc(C)s3)ccc2Cl)cc1 | -0.3% | -23.6%
CC1CCN(C(=O)c2ccc3c(c2)N(Cc2ccccc2F)C(=O)c2ccccc2S3(=O)=O)CC1 | 5.8% | 1.8%
CN(CC(=O)NCCc1ccc(S(N)(=O)=O)cc1)CC(=O)Nc1cccc(F)c1 | -11.3% | -9.3%
OCC1(Cc2ccccc2F)CCCN(CC2CCCCC2)C1 (centres undefined) | ? | -4.3%
Cc1ccc(S(=O)(=O)N/N=C/c2cccc(OC3CSC3)c2)cc1 | -18.7% | -5.8%
CC(CNC(=O)c1ccc2nc(CCc3ccccc3)oc2c1)c1ccccc1 (centres undefined) | -13.4% | -5.1%
COc1ccccc1C(=O)NC(=O)COC(=O)CCOc1ccc(C)cc1 | i | -7.6%
Fc1ccc(-c2nn(-c3ccc(Cl)cc3)c3c2cnc2ccc(F)cc23)cc1 | -3.7% | -7.1%
CCOc1ccc(CC(=O)NCCc2sc(-c3cccc(F)c3)nc2C)cc1 | 0.5% | -3.7%
Cc1ccccc1OCC(=O)Nc1c2c(nn1C(C)(C)C)CS(=O)(=O)C2 | -7.9% | -10.2%
CCN(CC)S(=O)(=O)c1cc(C(=O)NCCN2CCOCC2)ccc1Cl | i | -10.3%
c1ccc(CCNc2nc(-c3ccncc3)cs2)cc1 | -10.5% | -22.3%
COc1cc(C=O)ccc1OS(=O)(=O)c1ccccc1[N+](=O)[O-] | -29.1% | 5.1%
CCc1ccc(-n2nc(C)c3c(C)cc(=O)n(CC(=O)Nc4cc(C)ccc4C)c32)cc1 | -8.1% | -1.1%
CCCNC(=O)C1(C)CCCN(Cc2cccn2C)C1 (centres undefined) | 8.6% | -2.1%

Entries from the list above that have a thiophene ring, fused or not:
SMILES | VACV mCherry inh | Vaccinia Venus
c1csc(-c2ccn[nH]2)c1 | -27.4% | -9.3%
COc1ccc(NS(=O)(=O)c2cc(NC(=O)CNC(=O)c3ccc(C)s3)ccc2Cl)cc1 | -0.3% | -23.6%

(next part)
SMILES | VACV mCherry inh | Vaccinia Venus
CC(C)Sc1cc(N2CCCC2)nc(-c2ccccc2)n1 | . | -13.8%
CC1CCC(N2CC(=O)N(C3CCCCC3)C(c3ccc(F)cc3)C2=O)CC1 (centres undefined) | -5.9% | -4.7%
COc1ccc(CN2C(=O)C(CC(C)C)Nc3ncnc(N4CCN(c5ccccc5)CC4)c32)cc1 (centres undefined) | -28.7%&-3.7% | ?
CCNc1nc(NC(C)C)nc(Oc2ccc(OCc3ccccc3)nn2)n1 | -1.1% | -9.4%
CCN(CC(=O)NCc1ccc(F)cc1)C(=O)/C=C/c1ccco1 | i | -7.8%
O=C(Nc1c2c(nn1-c1ccc(Cl)cc1)CS(=O)(=O)C2)c1cccc(Cl)c1 | -11.3% | -12.4%
Cc1ncoc1C(=O)N1CCOc2ccc(CN3CCC(Oc4cccnc4)CC3)cc2C1 | -1.8% | 6.6%
COc1ccc(C(=O)CSc2nc(-c3ccccn3)nc(C)c2Cl)cc1 | ? | ?
O=C(CS(=O)(=O)Cc1ccccc1)Nc1ccccn1 | i | -16.7%
CCCCCn1nnnc1C1c2ccccc2C(=O)N1Cc1ccco1 (centres undefined) | -8.4% | 0.8%

Shown with values under each structure: 3 of the compounds above
Values run as follows: VACV mCherry inh, Vaccinia Venus
CC(=O)c1cn(C(=O)c2ccc(Cl)cc2)c2ccccc12
    -8.1%, -14.3%
CC(C)C[C@@H](CNCC(=O)[C@H](C)NC(=O)c1[nH]cnc1C(=O)N[C@@H](C)CN)NC(=O)c1nc[nH]c1C(=O)N[C@@H](CC(=O)O)C(=O)O
    i, -3.5%
CC(C)CNC(=O)c1c(N)n(Cc2ccco2)c2nc3ccccc3nc12
    ?, -13.3%

Next structures:
SMILES | VACV mCherry inh | Vaccinia Venus
CCN(C[C@H]1N[C@@](CC)(C(=O)OC)[C@H]2C(=O)N(Cc3ccccc3)C(=O)[C@@H]12)C(=O)Nc1ccc(Cl)cc1 | -27.6% | -17.9%
CCCCC[C@@H]1C=C(C(=O)O)[C@H](c2ccc3c(c2)OCO3)N1S(=O)(=O)c1ccc(C)cc1 | -10.7% | 1.9%
Cc1ccc(NS(=O)(=O)c2ccc(NC(=O)CN(c3cc([N+](=O)[O-])ccc3C)S(C)(=O)=O)cc2)c(C)c1 | ? | ?
CCc1cccc2c(C(=S)N3CCOCC3)c[nH]c12 | -3.5% | -12.7%
COc1ccc(-c2nc(S(=O)(=O)c3ccc(Cl)cc3)c(NCc3ccccc3)o2)cc1 | -9.7% | -4.1%
Cc1ccccc1N1C(=O)C(Oc2ccc(Cl)cc2)C1CNCC1CCCO1 (centres undefined) | -1.8% | -13.7%
ON=C(CCc1ccccc1)c1ccccc1 | -15.8% | -13.3%
CCc1c(N=O)c(-c2ccccc2)n(O)[n+]1[O-] | -5.5% | -13.3%
CCN1CCN(Cc2ccc(NC(=O)c3cc(NC(=O)c4cc(-c5ccc(OC)cc5)n[nH]4)cc(OC)c3)cc2C(F)(F)F)CC1 | ? | 10µM*
Cn1c(SCC(=O)N2CCCc3ccccc32)nc2cccnc21 | i | -15.8%
CCN(CC)S(=O)(=O)c1ccc(N2CCOCC2)c(NC(=O)C2=COCCO2)c1 | -9.6% | -5.8%
Cc1ccc(NC(=O)Cn2c(=O)n(CCCC(=O)NCc3ccco3)c(=O)c3ccccc32)cc1 | . | 12.5%
Cc1cc(O)c2c(c1)C(=O)[C@@]13Oc4c5c(c(O)c6c(O)cc(C)cc46)C(=O)C[C@H](O)[C@H]5[C@@H]1[C@@H](O)CC(=O)C3=C2O | 8.9% | 19.7%
O=C(O)c1ccc(CNCc2ccc(Cl)cc2Cl)cc1 | . | 10.3%
CCCCNC(=O)c1ccc(Cn2c(=S)[nH]c3c([nH]c4ccc(OC)cc43)c2=O)cc1 | ? | ?
CN(Cc1ccc(C(F)(F)F)cc1)C(=O)[C@H]1O[C@@H](n2ccc(=O)[nH]c2=O)[C@H](O)[C@@H]1O | i | -0.5%
COC(=O)CN1C(=O)C(O)(CC(=O)c2ccc(F)cc2)c2ccccc21 (centres undefined) | i | -2.3%
COc1cccc(NC(=O)c2c(C)oc3nc(C)nc(N4CCCC4)c23)c1 | i | -7.0%
CC(=O)c1cccc(CN2CCCC(C(=O)c3ccc4c(c3)OCO4)C2)c1 (centres undefined) | -9.3% | -13.1%
COC(=O)/C=C/C(=O)Nc1ccc(O)c(Cl)c1 | -24.3% | -10.5%

Continued, starting with the last seven of the part before.
SMILES | VACV mCherry inh | Vaccinia Venus
O=C(O)c1ccc(CNCc2ccc(Cl)cc2Cl)cc1 | . | 10.3%
CCCCNC(=O)c1ccc(Cn2c(=S)[nH]c3c([nH]c4ccc(OC)cc43)c2=O)cc1 | ? | ?
CN(Cc1ccc(C(F)(F)F)cc1)C(=O)[C@H]1O[C@@H](n2ccc(=O)[nH]c2=O)[C@H](O)[C@@H]1O | i | -0.5%
COC(=O)CN1C(=O)C(O)(CC(=O)c2ccc(F)cc2)c2ccccc21 (centres undefined) | i | -2.3%
COc1cccc(NC(=O)c2c(C)oc3nc(C)nc(N4CCCC4)c23)c1 | i | -7.0%
CC(=O)c1cccc(CN2CCCC(C(=O)c3ccc4c(c3)OCO4)C2)c1 (centres undefined) | -9.3% | -13.1%
COC(=O)/C=C/C(=O)Nc1ccc(O)c(Cl)c1 | -24.3% | -10.5%
CC1(C(=O)NS(=O)(=O)c2ccc3c(c2)CCO3)CCN1C(=O)Cc1ccc(-c2ccccc2)cc1 (centres undefined) | 36.8% | -4.2%
COc1cccc(-c2ccc3c(N)c(C(=O)c4ccc(Cl)cc4)sc3n2)c1 | -29.8% | -11.4%
CNS(=O)(=O)c1cccc(C(=O)NNC(=O)c2ccc(COc3ccccc3)cc2)c1 | i | -12.5%
COc1ccc(NC(=O)Cn2c(=O)oc3cc(S(=O)(=O)N4CCCC4)ccc32)cc1 | 26.9% | -1.0%
CCCOc1ccc(NC(=O)CC2C(=O)N(c3ccc(C)cc3)C(=O)N2Cc2cccc(OC)c2)cc1 (centres undefined) | -11.1% | -9.0%
CC(/C=C1\SC(=S)N(NS(=O)(=O)c2ccc(C)cc2)C1=O)=C\c1ccccc1 | -7.0% | 14.8%
CC(=O)N1CCN(C(=O)c2ccc(Cl)c(S(=O)(=O)N3CC(C)OC(C)C3)c2)CC1 (centres undefined) | -2.0% | -14.9%
CC1(C)CCc2cc(O)ccc2O1 | -10.6% | -1.6%
Cc1ccc(S(=O)(=O)N2CCN(C3CC(=O)N(Cc4ccccc4)C3=O)CC2)cc1C (centres undefined) | -24.6% | -18.6%
CC(NS(=O)(=O)c1ccc(Br)cc1)C(N)=O (centres undefined) | -13.7% | -3.3%
O=c1[nH]c(CSc2ncccn2)nc2c1cnn2-c1ccccc1 | -17.8% | -5.2%
COc1ccc(NC(=O)CN(C)C(=O)/C=C/c2cn(Cc3ccccc3)nc2-c2cccnc2)cc1 | i | -5.0%
C[C@@H](CSc1ccc(Br)cc1)CN1CC[C@H](O)CCC1=O | ? | -20.4%&-23.2%
Cc1cc(C)nc(SCC(=O)Nc2nc(-c3ccccc3)c(-c3ccccc3)o2)n1 | i | -11.8%
CC1CCN(C(=O)CN(c2ccccc2)S(=O)(=O)N(C)C)CC1 | i | -12.6%
CC(=O)c1cccc(NC(=O)NCc2cccnc2)c1 | -12.8% | -17.5%
CCN(CC)S(=O)(=O)c1ccc(OC)c(NC(=O)c2cc([N+](=O)[O-])ccc2N2CCOCC2)c1 | i | -21.4%
O=C(Cn1nnc2c(sc3nc4c(c(-c5ccccc5)c32)CCC4)c1=O)c1ccccc1 | . | 10.2%
CC1Cc2ccccc2N1C(=O)CSc1nnnn1Cc1ccccc1 (centres undefined) | -1.9% | -15.6%
CCN(CCCNC(=O)Cn1ncc2c3ccccc3n(C)c2c1=O)Cc1ccccc1 | -23.1% | -9.6%
CCOC(=O)C1CCN(Cc2c(C(=O)N3CCOCC3)nc3c(C)cccn23)CC1 | i | -18.3%
Cc1csc(NC(=O)CCc2nc3ccccc3s2)n1 | -13.8% | 2.4%
COc1ccc2oc(=N)c(C(=O)Nc3ccccc3)cc2c1 | . | ?
COc1cc(Cl)c(C)cc1NC(=O)CCc1c(C)nc2c3cccnc3nn2c1C | -5.3% | -3.6%
Cc1cnc(C(=O)N2CCCC(N3CCN(c4ccccc4C)CC3)C2)cn1 (centres undefined) | -24.2% | -16.6%
Cn1c(C(=O)N2CCCCCC2)cc2c(=O)n(C)c3ccccc3c21 | -2.1% | -5.1%
C[C@@H]1CN([C@@H](C)CO)C(=O)CCCn2nncc2CO[C@H]1CN(C)Cc1ccc(Oc2ccccc2)cc1 | -27.2% | -14.7%
Oc1ccc(/C=N/Nc2nc(N3CCCCCC3)nc(N3CCCCCC3)n2)c(O)c1 | ? | -8.8%
OC(COc1cccc2ccccc12)CN1CCN(c2cccc(Cl)c2)CC1 (centres undefined) | -17.3% | -20.2%
CCCCc1nn2c(=O)cc(COC(=O)c3ccc(NC(=O)c4ccccc4Cl)cc3)nc2s1 | i | -5.4%
